# Source: PubChem (ICCB-Longwood Screening Facility, Harvard Medical School)
# Choline anaer gr – growth inhibitors of anaerobic choline-fed gram-negatives, minimal medium, absorbance | calls only | Gram-negative bacterium anaerobic choline minimal medium; stronger effect = lower value; many inactives read as strong as hits in the columns shown | AID 1963822, 2024 | 55,000 compounds, 0.2% hits;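 active = growth z-score on choline under -2 at 7 or 20 h with little or no fall on glycerol, limits in tiers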;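 also: stock transfer was 300 nL into about 50 µL; the organism is E. coli; final concentration not given here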
# Choline anaer gr early – further read-out of Choline anaer gr, marked with its call; z-score; measured here: choline growth z-score, timepoint 1;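 score of optical density at 7 h as mean of two plates; lower means less growth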
# * = called active by the depositor; i = inactive; & = joins results of further samples.
SMILES,Choline anaer gr,Choline anaer gr early
C=CCNc1oc(-c2ccc(S(=O)(=O)N(C)C)cc2)nc1C#N,i,0.01
CCN(CC)S(=O)(=O)c1ccc2c(c1)cc(C(=O)NCCc1c[nH]c3ccccc13)n2C,i,1.2
O=C(Nc1ccc(F)c(F)c1)C1Nc2cc(F)ccc2S(=O)(=O)N1 (stereo not given),i,-0.52
O=C(NCCN1CCOCC1)c1cnc2sc3c(n2c1=O)CCCCC3,i,-0.61
C=CCNC(=O)C(CC)N1CCN(Cc2ccc(F)cc2)C(=O)C1=O (stereo not given),i,-0.31
COc1ccc(CNC(=O)C2(C)Cc3ccccc3C(=O)N2Cc2cccc(OC)c2)cc1 (stereo not given),i,2.5
COc1ccc(-c2nc3nc[nH]n3c2Nc2ccc(C)cc2)cc1,i,1.4
O=C(CSc1nc(-c2ccc3c(c2)OCO3)nc2cc(=O)[nH]n12)Nc1ccccc1,i,-1.5
O=C(O)CCC/C=C\C[C@H]1C(=O)C=C[C@@H]1/C=C/[C@@H](O)CCc1ccccc1,i,0.72
CS(=O)(=O)Nc1ccc2nc(S(C)(=O)=O)sc2c1,i,-3.8
Cc1ccc(-n2nc(N3CCCN(C(=O)CN4C(=O)C(C)Oc5ccccc54)CC3)ccc2=O)cc1 (stereo not given),i,-0.65
Cc1cc2c(cc3n2CC(C)(C(=O)NC2CCCCC2)N(CCCN2CCCCC2)C3=O)o1 (stereo not given),i,-0.27
COC(=O)c1ccc(Oc2nc(N3CCOCC3)c(Cl)c3c2N(CC2CCCO2)CCS3(=O)=O)cc1 (stereo not given),i,-0.39
COc1c(C)c2c(c(O)c1C/C=C(\C)CCC(=O)O)C(=O)OC2,i,-1&0.58&0.04
Cc1cc(C2CCCN2Cc2cc(Br)ccc2O)on1 (stereo not given),i,0.29
Fc1ccc(N2CCN(c3ncnc4c3nc3n4CCCC3)CC2)cc1,i,0.2
CCOC(=O)c1noc2nc(C)n(C(C)C(=O)N3CCCc4ccccc43)c(=O)c12 (stereo not given),i,-1.1
Cc1cccc(-c2noc(CSc3nc4cc5c(cc4c(=O)n3CC3CCCO3)OCO5)n2)c1 (stereo not given),i,0.1
CN(C(=O)CSc1nnc(-c2cccnc2)o1)c1ccc(F)cc1,i,-0.9
CN(C)c1ccc(C(CNC(=O)c2ccc(F)cc2)N2CCOCC2)cc1 (stereo not given),i,-0.25
Cn1c(=O)n(C)c2cc(CNCC(O)c3ccccc3)ccc21 (stereo not given),i,-0.32
CC1CCN(S(=O)(=O)c2cc(C(=O)NC3CCCC3)n(C)c2)CC1,i,1.2
CN(C)CCOC1=Cc2ccccc2Sc2ccc(Cl)cc21,i,-0.97
O=C(Cn1nc(C(=O)Nc2ccccc2)ccc1=O)NCCc1ccccc1,i,0.06
O=C(NCCc1ccccc1)Nc1nccn(-c2ccc(Cl)cc2)c1=O,i,-0.19
Cc1ccc(C2N=C(Nc3cccc(C)c3C)Nc3nc(C)cc(=O)n32)cc1 (stereo not given),i,0.38
Cc1ccc(S(=O)(=O)/C=C/C#N)cc1,i,-4.3&-3
COc1ccccc1OCCCn1c(C2CCCO2)nc2ccccc21 (stereo not given),i,-0.49
Fc1ccc(Nc2ncnc3onc(-c4ccc(F)cc4)c23)cc1,i,2.1
CCOc1ccc(-c2noc(N3CCC(C(=O)NCC4CCCO4)CC3)n2)cc1OC (stereo not given),i,0.51
O=C(CC1CCCC1)N1CCC2(CC1)Nc1cc(F)ccc1-n1cccc12,i,-0.71
COC(=O)c1cnn2c(C(F)(F)F)cc(C)nc12,i,0.16
CCC(=O)Nc1c(C)nc(Nc2ccc(C)cc2)nc1Nc1ccc(C)cc1,i,-0.95
CCOC(=O)Cc1cc(=O)oc2cc(O)cc(O)c12,i,0.56
c1ccc(-c2nc(-c3cccc(-c4csc(C5CC5)n4)c3)no2)nc1,i,1.8
CC1(C)C(=O)N(CC(=O)Nc2cccc(F)c2)c2ccccc21,i,-1.3
COCCNS(=O)(=O)c1ccc2c(c1)oc(=O)n2CC(=O)OC,i,-1.3
COC(=O)c1ccccc1NC(=O)c1nn(-c2ccc(C)cc2)c(=O)cc1OC,i,0.18
COc1ccc(C(=O)NCc2ccc3c(c2)N(C(=O)c2ccc(Cl)cc2)CC3)cc1,i,-0.75
CS(=O)(=O)N1CCCC1c1cccc(F)c1 (stereo not given),i,-0.49
CCc1ccc(-c2csc(Cc3nc(-c4ccccc4)no3)n2)cc1,i,-0.01
Cc1cccc(-c2nccc(Nc3cccc(C(=O)NC4CC4)c3)n2)c1,i,-0.86
CCOc1ccc(OCC)c(NS(=O)(=O)c2ccc3onc(C(=O)N4CCCC4)c3c2)c1,i,-0.14
CC(=O)Nc1ccc(-c2noc(C3CCCN(C(=O)c4ccc(C(C)(C)C)cc4)C3)n2)cc1 (stereo not given),i,0.09
CNC(=O)Nc1ccc2nc3n(c(=O)c2c1)CCCC3,i,-1.5
CCCn1c(=O)c2ccc(Cl)cc2n2c(=O)n(CC(=O)Nc3ccc4c(c3)OCO4)nc12,i,-0.47
CCOC(=O)c1cnc(SCC(=O)Nc2ccc(C)c(C)c2)nc1N,i,1.5
Cc1cc(=O)[nH]c(-n2nc(C)cc2NC(=O)c2ccc(OC(C)C)cc2)n1,i,0.38
COc1ccc(S(=O)(=O)N2CCC(NC(=O)NC(C)c3ccncc3)CC2)cc1 (stereo not given),i,-2.2
O=C(c1ccccc1OCc1nc(-c2ccccc2)no1)N1CCCCC1,i,-1.3
# Remaining list, next part.
SMILES,Choline anaer gr,Choline anaer gr early
Cc1cc(=O)n(CC(=O)N2CCc3ccccc32)c(N2CCCC2)n1,i,-2.3
O=C(c1csc(-c2cccnc2)n1)N1CCN(c2ccccn2)CC1,i,-0.79
O=C(NCCc1c[nH]c2ccc(Cl)cc12)c1ccc(CN2C(=O)CCn3nccc32)cc1,i,3.5
COc1ccc(NC(=O)CN(C)S(=O)(=O)c2ccc3c(c2)CCCC(=O)N3)c(OC)c1,i,-0.22
CCN(CC)CCn1c(C)c(C)c2c1ncn1nc(-c3cccnc3)nc21,i,-0.47
Cc1cc(N2CCCC2)nc(Nc2ccc(NC(=O)C3CCCO3)cc2)n1 (stereo not given),i,1.1
Cc1oc(-c2ccc(OC(C)C)cc2)nc1CSc1nc(-c2ccncc2)cc(=O)[nH]1,i,0.5
O=C(NC1CCCC1)c1ccc(Nc2ccnc(-c3cccc(F)c3)n2)cc1,i,-1.4
Cc1nc(-c2csc(S(=O)(=O)Nc3ccc(-c4nc5ccccc5[nH]4)cc3)c2)no1,i,-0.96
Cc1cccc(C)c1Nc1c(-c2ccc(F)cc2)nc2cnc(Br)cn12,i,-1.9
Cc1ccc2c(c1)N(C(=O)CCC(=O)N1CCN(c3ccccn3)CC1)CCO2,i,0.15
COc1ccc(-n2c(CN3CCN(S(C)(=O)=O)CC3)nc3cccnc32)cc1,i,-0.61
CCOc1ccc(C(=O)N(CCOC)CCC(=O)N2CCNCC2)cc1,i,-1.8
OC(CCN1CCCCC1)(c1ccccc1)c1ccccc1,i,0.88
O=C(O)c1ccc(N2CCOCC2)c(NS(=O)(=O)c2cc(F)ccc2F)c1,i,-0.58
COc1ccc(NC(=O)N2CCCn3nc(C)cc32)cc1OC,i,-0.38
Cc1nc(CCNC(=O)[C@H]2CSCN2S(=O)(=O)c2ccc(F)cc2)cs1,i,-0.14
CCSc1nnc(-c2nn(C)c3c2CN(S(=O)(=O)c2cccc(Cl)c2C)CC3)n1CC,i,1.5
NS(=O)(=O)c1cc(C(=O)O)c(NCc2ccco2)cc1Cl,i,0.6&-0.02
Cc1cc2c(cc1S(=O)(=O)N1CCCC1C(=O)N1CCN(c3ccccc3)CC1)OCC(=O)N2 (stereo not given),i,0.29
Cc1[nH]c(C(=O)N2CCOCC2)c(C)c1S(=O)(=O)N1CCOCC1,i,-0.47
Cc1ccc(C2CCCN2C(=O)c2c(C)noc2C)cc1 (stereo not given),i,-0.4
CCOc1ccc(C2C3=C(CC(c4ccc(O)cc4)CC3=O)Nc3onc(C)c32)cc1 (stereo not given),i,0.11
Cc1nn(-c2ccc3nncn3n2)c(C)c1CCC(=O)N1CCN(c2ccccn2)CC1,i,1.4
Cc1ccccc1C(=O)Oc1cc(-c2ccc3c(c2)OCO3)cc(=O)c2c(C)oc(C)c12,i,-0.27
COc1ccc(S(=O)(=O)N2CCc3nc(NC(=O)CC4CCCC4)sc3C2)cc1,i,0.11
O=C(CC1CCN(C(=O)C2CCCCC2)CC1)NCCN1CCOCC1,i,-0.19
Cc1c(-c2nc(C3CCC3)no2)c(S(=O)(=O)NCc2ccco2)c(C)n1C,i,0.45
Cc1ccc(NC(=O)Nc2nnc(SCC(=O)N3CCc4ccccc43)s2)cc1,i,-0.37
CCCCn1nnc(NCc2ccc(-c3ccc(Br)cc3)o2)n1,i,0.03
CCc1cc(-c2csc(S(=O)(=O)NCCCN3CCOCC3)c2)on1,i,-1.6
NC/C=C/C(=O)O,i,0.41
Cc1ccsc1-c1nc(CCS(=O)(=O)c2ccccc2)no1,i,0.53
CCOC(=O)c1[nH]c(C)c(S(=O)(=O)Nc2ccc(C)cn2)c1C,i,0.66
CC(C)C(=O)c1sc(Nc2ccc(Br)cc2)nc1N,i,-2.6
Cc1ccc(-n2nc(N3CCCN(C(=O)C4CCC4)CC3)ccc2=O)cc1,i,-1.9
CCCc1nnc2sc(COc3cccc(OC)c3)nn12,i,-0.89
CC1(C(=O)NCc2ccc(Cl)cc2)Cc2ccccc2C(=O)N1CC1CC1 (stereo not given),i,-0.82
CCc1ccc2c(c1)[C@H]1OCCC[C@H]1C(c1ccc(O)c(Cl)c1)N2 (stereo not given in full),i,0.67
CNC(=O)c1ccsc1NC(=O)CS(=O)(=O)c1ccc(Cl)cc1,i,-0.61
O=C(Nc1nc(-c2ccccc2)c(C(=O)c2ccccc2)s1)c1ccc2c(c1)OCCO2,i,0.16
N[C@H](C(=O)O)c1ccc(C(=O)O)c(C(=O)O)c1,i,0.74
CC(C)c1nn2c(S(=O)(=O)NC3CCCCC3)c(C(C)C)nc2s1,i,-1.6
COc1cccc(NC(=O)C2CCN(S(=O)(=O)c3ccc4c(c3)NC(=O)CO4)CC2)c1,i,-0.48
CCc1cccc(N2C(=O)Cn3cccc3C2C(=O)NC2CCC(C)CC2)c1 (stereo not given),i,-1.1
CCOC(=O)c1ccc(NC(=O)NCCn2cnc3cc(C(=O)N(C)C)ccc32)cc1,i,-0.73
Nc1ncn([C@@H]2O[C@H](CO)[C@@H](O)[C@H]2O)c(=O)n1,i,-2.9
Cc1sc(-c2nnc(C(=O)N3CCCC3)o2)cc1S(=O)(=O)N1CCOCC1,i,0.15
Cc1ccc(NC(=O)N2CCN(c3cc(=O)n4nc(-c5ccccc5C)sc4n3)CC2)cc1Cl,i,0.88
O=C(NCc1ccc2c(c1)OCO2)c1ccc(CN2C(=O)CCn3nc(-c4ccc(Cl)cc4)cc32)cc1,i,0.18
# New compounds follow
SMILES,Choline anaer gr,Choline anaer gr early
Cc1ccccc1-c1noc(N2CCC(C(=O)NCc3ccc4c(c3)OCO4)CC2)n1,i,1
O=C(CN1C(=O)CC(c2ccccc2)=Nc2ccccc21)Nc1ccc2c(c1)OCCO2,i,0.49
Cc1cc2nc(CSc3nnc(-c4cccc(Cl)c4)o3)cc(=O)n2o1,i,0.89
CCCCCNC(=O)c1cncc(-c2ccc(C)cc2)c1,i,-1.7
COc1ccc(-c2noc(CSc3nccn3-c3ccc(C)cc3)n2)cc1OC,i,-0.58
CC(C)n1nccc1-c1csc(S(=O)(=O)N2CCC3(CC2)OCCO3)c1,i,-1.1
CCOc1ccc(-c2nonc2NC(=O)C(C)Oc2cccc(C)c2C)cc1C (stereo not given),i,0.2
Cc1cccc(NC(=O)CN2C(=O)CC(c3ccccc3)=Nc3ccccc32)c1,i,1
O=C(CCn1cccc1)N1CCN(c2ccccc2F)CC1,i,0.55
CCOC(=O)c1ccc(NC(=O)Cn2cnc3nc(N4CCCC4)ncc3c2=O)cc1,i,0.44
O=C(Nc1cccc(F)c1)C1Oc2ccccc2NC1=O (stereo not given),i,-0.02
Cc1nc(C#Cc2ccnc(Cl)c2)c(C)n1-c1ccc(OC(F)(F)F)cc1,i,0.56
O=C(O)C=Cc1ccc(Cn2ccnc2)cc1,i,0.69
Cc1ccc(S(=O)(=O)N2C(=O)CCC2C(=O)NC2CCC(C)CC2)cc1 (stereo not given),i,-0.48
CCOC(=O)CNC(=O)N1CCOc2ccc(COCc3ccccc3F)cc2C1,i,-1.4
Cc1nc(-c2cccc(-c3noc(C(=O)NCc4cccnc4)n3)c2)cs1,i,0.18

# Some of the compounds tested (hit frequency here may not be typical).
